# Assay outcomes as filed in PubChem BioAssay.
# AmpC inh no det: inhibitors of E. coli AmpC beta-lactamase without detergent; AmpC nitrocefin hydrolysis, absorbance 480 nm, no detergent; potencies from a single point are estimates; Potency, µM (series often up to 28.7 µM), for the others: top-dose activity change, negative = inhibition; hit rate 1.8% among 71,000; AID 585; active = falling curve, for most hits resting on a single point; inconclusive = weak or doubtful change; inactive = flat or rising curve; further: % of control where 0% means no effect; about half of the hits show no inhibition at the top dose; a quarter of the inactives give rising signals
# Target sequence (P00811 whole entry, looked up): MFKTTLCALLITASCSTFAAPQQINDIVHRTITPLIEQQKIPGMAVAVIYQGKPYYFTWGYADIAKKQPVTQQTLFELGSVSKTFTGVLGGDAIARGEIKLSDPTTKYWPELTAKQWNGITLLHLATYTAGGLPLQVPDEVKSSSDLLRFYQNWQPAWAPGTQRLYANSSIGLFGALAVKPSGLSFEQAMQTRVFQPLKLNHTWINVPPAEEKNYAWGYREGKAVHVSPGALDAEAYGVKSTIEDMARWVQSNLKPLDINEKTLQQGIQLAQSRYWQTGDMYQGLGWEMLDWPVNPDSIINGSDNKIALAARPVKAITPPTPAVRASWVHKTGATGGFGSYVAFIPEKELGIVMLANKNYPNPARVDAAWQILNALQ
#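 AmpC, 20 mM phosphate pH 7.0; 15 min cpd preinc, RT; start with nitrocefin (800 uM stock); A480 kinetic read, 20 s intervals, 4 min. No-enzyme wells = negative control.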
# The depositor's hits bear a star; ? = inconclusive; & = joins results of further samples; [ ] = remark or other dose. Potency means the concentration at half of the fitted maximal effect.
SMILES,AmpC inh no det
O=C(NCCN1CCOCC1)Nc1ccc(Cl)cc1,-1%
O=C(COc1ccc(S(=O)(=O)N2CCCC2)cc1Cl)NCc1ccco1,34%
COCCNc1ncnc2ccc(-c3ccccc3CN(C)C)cc12,7%
Cc1ccc(S(=O)(=O)NC2=NCN(Cc3cccnc3)CN2)cc1,-7%
Cc1c(C(=O)Nc2ccncc2)oc2c1C(=O)CC(C)(C)C2,-11%
COc1ccc(C2CC(c3cccc(C)c3)n3ncnc3N2)cc1 (centres undefined),4µM*[single pt active]
CC(C)/C(=N/[N+](C)(C)C)c1ccccc1,-11%[5.75 µM]
Cc1nc2cnc(N3CCOCC3)nc2n(C)c1=O,12%
O=C(Nc1ccc(N2CCCCC2)c(C(=O)O)c1)c1ccco1,0%
Nc1scc(-c2ccncc2)c1Cl,-18%
COCCn1c(=O)c(C)nc2cnc(N(C)C)nc21,6%
Brc1c(CSc2nc3ccccc3o2)nc2ncccn12,34%
OC1(c2ccccc2F)CCN(Cc2nnc(-c3ccccc3)o2)CC1,24%
CCCn1nc(C(=O)OCC(=O)c2ccc3c(c2)NC(=O)CO3)c2ccccc2c1=O,20%
Cc1ccc2nc(C3CCN(CC(=O)N4CCCCCC4)CC3)[nH]c2c1,-11%
CN(c1ccccc1)S(=O)(=O)c1ccc(C(=O)OCC(=O)NCc2ccco2)cc1,10%
CCOc1cc(N2CCOCC2)c(OCC)cc1NC(=O)C(NC(=O)c1ccco1)C(C)C (centres undefined),88%
Cc1ccccc1-n1nc(C(=O)O)c(C)c(C#N)c1=O,-7%
CCN=C1SC(C(N)=O)CC(=O)N1CC (centres undefined),-4%
Cc1nnc(SCC(=O)Nc2nccs2)s1,-21%
CCN(CC)c1ccc(NC(=O)CSc2nc3ccccc3c(=O)[nH]2)cc1,10µM*[single pt active]
O=C1SC(SCc2ccccc2)=N/C1=C\c1ccco1,-21%
CC(=O)Nc1ccc(S(=O)(=O)Nc2ccc(N3CCOCC3)cc2)cc1,-10%
COc1ccc(N(C(=O)c2ccc(Br)o2)C2C=CS(=O)(=O)C2)cc1 (centres undefined),5%
COc1cc2c(C)nc(C)c(C#N)c2cc1OC,42%
O=C(c1ccncc1)N1CCC2(CC1)CN(C(c1ccccc1)c1ccccc1)C2,103%
CCOC(=O)CSc1nnc(-c2cccc(Br)c2)o1,19%
O=C(Cc1cccs1)NCc1ccccc1,-3%
O=C(CN1C(=O)c2ccccc2S1(=O)=O)NC1CCCC1,-1%
CCC(=O)Nc1ccc2nc(C)n(CC(=O)Nc3ccccc3)c(=O)c2c1,9%
O=C(c1cccs1)N(CC1CCCO1)c1nc(-c2ccccc2)cs1 (centres undefined),5%
C=CCNc1nnc(SCC(=O)N2CCCCC2)c2ccccc12,-6%
Cn1nnc2cc(C(=O)NC(C)(C)C)ccc21,-3%
Cc1ccc(NC(=O)CS(=O)CC(=O)N(CC(=O)NC2CCCC2)c2cc(C)ccc2C)cc1 (centres undefined),88%
COc1cccc(-c2nc(C(N)=O)c3[nH]c(=O)n(-c4ccccc4)c3n2)c1OC,50%
O=c1cccc2n1CC1CC2CN(c2ncnc3c2cnn3-c2ccc(Cl)cc2)C1 (centres undefined),110%
CC(C)(C)c1ccc(C(=O)CSc2ncn[nH]2)cc1,5%
O=C(c1ccco1)c1cn(CC(=O)N2CCCCC2)c2ccccc12,1%
O=c1c(-c2ccccc2)nc2cnc(Oc3ccccc3)nc2n1C1CC1,31%
c1csc(-c2csc3nc(CN4CCOCC4)nc(NCc4ccc5c(c4)OCO5)c23)c1,132%
Fc1ccc(Br)cc1C1C=C(c2ccc(Br)s2)Nc2ncnn21 (centres undefined),-23%
O=c1[nH]nc(Sc2ncnc3sccc23)n1CCc1ccccc1,4%
CCCc1cc(=O)oc2cc(OCC(=O)Nc3cc(C)on3)ccc12,15%
CN1CCc2nc(SCCOc3ccccc3)c(C#N)cc2C1,72%
CCN1CCN(CC(O)COc2ccc(C(C)=O)cc2)CC1 (centres undefined),4µM*[single pt active]

# Next section, overlapping the part above by 7 compounds.
SMILES,AmpC inh no det
O=c1c(-c2ccccc2)nc2cnc(Oc3ccccc3)nc2n1C1CC1,31%
c1csc(-c2csc3nc(CN4CCOCC4)nc(NCc4ccc5c(c4)OCO5)c23)c1,132%
Fc1ccc(Br)cc1C1C=C(c2ccc(Br)s2)Nc2ncnn21 (centres undefined),-23%
O=c1[nH]nc(Sc2ncnc3sccc23)n1CCc1ccccc1,4%
CCCc1cc(=O)oc2cc(OCC(=O)Nc3cc(C)on3)ccc12,15%
CN1CCc2nc(SCCOc3ccccc3)c(C#N)cc2C1,72%
CCN1CCN(CC(O)COc2ccc(C(C)=O)cc2)CC1 (centres undefined),4µM*[single pt active]
COc1cc(C2c3c(oc4ccccc4c3=O)C(=O)N2c2ccc(C)cn2)ccc1O (centres undefined),21%
COC(=O)c1ccc(NC(=O)C2CCCN2S(=O)(=O)c2ccc(OC)cc2)cc1 (centres undefined),10%
CCc1cc2ccccc2nc1SCC(=O)N1CCN(C(=O)c2ccco2)CC1,95%
CCCn1c(C)nc2c(NCCO)nc(C)nc21,7%
Cc1cc(C)c(C#N)c(SCC(=O)Nc2ccccc2C(N)=O)n1,-10%
CCOC(=O)C1C(=O)Nc2nc(C)nn2C1c1ccccc1 (centres undefined),7%
O=C(NCc1cccs1)C1CCCN(S(=O)(=O)c2cnc[nH]2)C1 (centres undefined),-7%
CCNc1oc(COc2cccc(C)c2)nc1C#N,-3%
COc1ccc(C2CC(C(F)(F)F)n3nc(C(=O)NCCN4CCOCC4)cc3N2)cc1 (centres undefined),107%
c1coc(CNc2nc(-c3ccncc3)cs2)c1,-11%
CCc1noc(C)c1C(=O)N1CCOCC1,-1%
Cc1cccc(CC(=O)Nc2cc(=O)n(C)c(=O)n2C)c1,13%
COCCn1nnnc1CN(Cc1cc2cc(OC)c(OC)cc2[nH]c1=O)C1CCCC1,69%
O=C(CN1C(=O)C2CCCN2C(=O)c2ccccc21)Nc1ccccc1-n1cccc1 (centres undefined),1%
Cc1cc2oc(=O)cc(CN3CCc4ccccc43)c2cc1Cl,3%
CCOc1cc(NC(=O)C2CC2)c(OCC)cc1NC(=O)c1cccnc1,13%
CNC(=O)[C@@]1(Cc2ccccc2)C=C[C@@H](C)N1C(C)=O,-1%
O=C(Nc1ccc(N2CCCC2=O)cc1)c1cccc(F)c1,3%
COC(=O)c1sc(NC(=O)COc2ccccc2)nc1C,-6%
CCOc1ccc(-c2cc(C(=O)NCCCN3CCN(CC)CC3)c3ccccc3n2)cc1,94%
Cc1cc(C)nc(SCC(=O)Nc2cc(C)on2)n1,14%
O=C(CCCCC(=O)N1CCN(c2ccccc2)CC1)N1CCN(c2ccccc2)CC1,12%
COc1ccc(NC(=O)C2CCN(S(=O)(=O)c3ccc(OC)c(OC)c3)CC2)c(OC)c1,77%
CCc1ccccc1N1C(=O)C2CC(C)=C(C)CC2C1=O (centres undefined),25%
COc1ccc(C)cc1NC(=O)c1ccc(N(C)S(C)(=O)=O)cc1,32%
O=C1NC(=O)C2(Cc3ccccc3N3CCCC32)C(=O)N1c1cccc(Cl)c1 (centres undefined),15%
COc1ccc2nc(N3CCCC3)[nH]c2c1,-12%
CCOC(=O)N1CCC(N(CCOC)C(=O)Nc2ccc(Cl)c(Cl)c2)CC1,105%
CCn1c(NC(=O)c2cccs2)c(-c2cccs2)c(=O)c2ccccc21,-18%
Cc1cc2nnc(SC(C)C#N)n2c2ccccc12 (centres undefined),5%
CC1CN(Cc2nc3c(c(=O)[nH]c(=O)n3C)n2CCCc2ccccc2)CC(C)O1 (centres undefined),69%
CCOC(=O)c1cccc(NC(=O)CSc2nnc(COc3ccccc3)n2CC)c1,65%
COc1ccc(N2CCN(c3nc(=S)n(-c4ccccc4)c(C)c3C(C)=O)CC2)cc1,96%
CCCCCCCCCCCCCCCCCC(=O)O[C@H](CC(=O)O)C[N+](C)(C)C,76%
N#Cc1ccc(CN2CC[C@@]3(CCCN(C(=O)c4ccco4)C3)C2)cc1,80%
O=C1c2ccccc2C(O)N1Cc1ccccc1Cl (centres undefined),7%
CS(=O)(=O)N1CCCC(c2nc(-c3ccc(S(=O)(=O)NCc4ccccc4)cc3)no2)C1 (centres undefined),30%
Cc1ccc(Cn2c(Sc3ncccn3)nc3c2c(=O)[nH]c(=O)n3C)cc1,19%
CCOC(=O)c1cc(-c2ccccc2)sc1NC(=O)CSc1nnnn1C,23%
O=C(CSCc1n[nH]c(=O)[nH]1)NCCOc1cccc(Oc2ccccc2)c1,35%
CC(Oc1ccc(C(=O)NC2CCCCC2)cc1)C(=O)O (centres undefined),-3%
CN1CCN(c2ncc3nc(-c4ccccc4)c(=O)n(CCC#N)c3n2)CC1,64%
Cc1conc1NC(c1cccs1)c1ccc2cccnc2c1O (centres undefined),?
Fc1ccccc1N1CCN(c2ncnc3[nH]ncc23)CC1,-5%
COCCNC(=O)c1ccccc1-c1nc(-c2ccccc2OC)no1,16%
COc1ccc(OCC(=O)NC2CC(C)(C)NC(C)(C)C2)cc1,-3%
O=C(Cc1ccccc1)NCCSCc1ccco1,9%
C[N+](C)(N)Cc1nc(-c2ccc(Cl)cc2)no1,1%[5.75 µM]
Cc1ccc(-c2nc(CS(=O)(=O)CC(=O)N3CCCCCC3)c(C)o2)cc1,89%
COC(=O)c1c(C)oc2ccc(NS(=O)(=O)c3cc(OC)ccc3OC)cc12,58%
CCn1cc(C(=O)OCC(=O)Nc2c(C)n(C)n(-c3ccccc3)c2=O)c(=O)c2ccc(C)nc21,6%
O=C(c1ccco1)N1CCC2(CCN(Cc3nccs3)CC2)CC1,106%
O=S(=O)(NCc1ccco1)c1cccc2cccnc12,-3%
Cn1c(=O)[nH]c(=O)c2c1nc(Br)n2Cc1ccccc1Cl,8%
Cc1c(O)ccc2c3c(c(=O)oc12)CCC(C)C3 (centres undefined),-4%
Cc1ccc(CNS(=O)(=O)c2ccc(C(C)(C)C)cc2)n1C,1%
O=C(NCCC1=CCCCC1)C1CCN(S(=O)(=O)N2CCOCC2)CC1,27%
CCOc1ccc(C)cc1S(=O)(=O)n1ccnc1,10%
COC(=O)Cc1cc(=O)n(-c2ccccc2)[nH]1,6%
COCCCn1cnc2c(c1=O)c1nc3ccccc3nc1n2-c1ccc(C)cc1,159%

# Sorted by molar mass (lowest first): some entries from above.
SMILES,AmpC inh no det
C[N+](C)(N)Cc1nc(-c2ccc(Cl)cc2)no1,1%[5.75 µM]
Cc1ccc(-c2nc(CS(=O)(=O)CC(=O)N3CCCCCC3)c(C)o2)cc1,89%
COC(=O)c1c(C)oc2ccc(NS(=O)(=O)c3cc(OC)ccc3OC)cc12,58%

# Next section.
SMILES,AmpC inh no det
CN(C)Cc1ccc(O)c(CN(C)C)n1,-1%[5.75 µM]
CCN(CC)CCSc1nc(O)c(-c2ccccc2)c(=O)[nH]1,-4%
Cc1ccc2nc(SCC(=O)Nc3c(C)n(C)n(-c4ccccc4)c3=O)[nH]c2c1,41%
CN(CCc1ccc(Cl)c(Cl)c1)C[C@@H](O)COc1ccc(NS(C)(=O)=O)cc1,67%
C=CCn1c(SC/C=C/c2ccccc2)nnc1-c1sc(N)nc1C,37%
CCN(CC)C(=O)c1sc2nc(-c3ccncc3)[nH]c(=O)c2c1C,17%
CCOc1ccc(OCC)c(NC(=O)CC2Oc3ccc(C)cc3NC2=O)c1 (centres undefined),6%
c1coc(C2Nc3ccccc3-c3nc4ccccc4n32)c1 (centres undefined),-11%
COc1cccc(-c2cc(C(=O)Nc3c(C)nn(Cc4ccccc4C)c3C)no2)c1,62%
CCC(C)OC(=O)C1=C(C)NC2=C(C(=O)C(C(=O)OC)C(C)C2)C1c1ccc(N(C)C)cc1 (centres undefined),101%
NS(=O)(=O)c1cccc2c1c([N+](=O)[O-])cc1nc(O)c(O)nc12,-3%&5%
CC(C)=C[C@H]1[C@@H](COC(=O)c2cc3c(cc2Cl)OCO3)C1(C)C,-10%[5.75 µM]
CCCn1c(SCC(=O)NC(=O)NCc2ccco2)n[nH]c1=O,-10%
Cn1c(N2CCCC2)nc2c1c(=O)n(Cc1ccc(F)cc1)c(=O)n2C,52%
COc1ccc(Cn2c(C)ccc2C)cc1,14%

# Three successive compounds out of the list so far, quoted:
SMILES,AmpC inh no det
Cc1nc2cnc(N3CCOCC3)nc2n(C)c1=O,12%
O=C(Nc1ccc(N2CCCCC2)c(C(=O)O)c1)c1ccco1,0%
Nc1scc(-c2ccncc2)c1Cl,-18%

# (listing goes on)
SMILES,AmpC inh no det
CCCCOC(=O)Nc1ccc(N2CCCCC2)cc1,-3%
COc1ccc(C(=S)N2CCN(C)CC2)cc1Br,14%
CCn1c(SCC(=O)N2CCCc3ccccc32)nc2c(c1=O)SC(C)C2 (centres undefined),65%
FC(F)(F)COc1nc(N2CCCCC2)nc(N2CCNCC2)n1,14%
CC(=O)Nc1nc2n(n1)C(c1ccc(F)cc1)C=C(c1ccccc1)N2 (centres undefined),?
CN1C(=O)C(Cc2cccs2)C(=O)N(C)C1=O,-10%
Cc1cc(C)n(-c2ccc(-n3ccnc3)nn2)n1,2%
CCc1ccc(OCC(=O)OC2CCS(=O)(=O)C2)cc1 (centres undefined),27%
COc1ccccc1NC(=O)C1CCCCC1,-1%
Cn1nnnc1SCC(=O)NCc1cccc(C(=O)O)c1,-10%
c1ccc2c(c1)oc1c(NCc3ccc4c(c3)OCO4)ncnc12,7%
CCOC(=O)CSC1=C(C#N)C(c2ccccc2F)C(C(C)=O)=C(C)N1 (centres undefined),9%
COc1ccc(N2C(=O)CC(c3ccc(OC(C)C)cc3)C2=O)cc1 (centres undefined),21%
CC(CCc1ccco1)NC(=O)CSc1cc(=O)n(C)c2ccccc12 (centres undefined),53%
COc1ccc(NC(=O)Cn2nnc(-c3ccccc3NC(=O)C3CC3)n2)cc1,?
CCc1nc2oc3ccccc3c(=O)c2c(=O)n1-c1ccccc1,-6%
O=C(Oc1ccc(S(=O)(=O)F)cc1F)c1ccccc1Cl,-11%[5.75 µM]
CN1CC[C@@]2(CCCN(C(=O)c3cccn3C)C2)C1,20%

# Some of the compounds tested; rates above refer to the full screens.
